Source: PubChem BioAssay (several laboratories)
PABP FP inh: PABP-poly(A) binding inhibition; P11940; PABP-poly(A) RNA binding, fluorescence polarization; inhibition, % at 35 µM; 1% of 290,000 active;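 active = 50% or more with normal probe brightness, or confirmed in later tests; inconclusive = above 50% with abnormal brightness, or retests that disagree; inactive = below 50% or failed in later tests; about a fifth of its hits are not listed in these tables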;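 note: calls also rest on retests at 20 µM and on dose response follow-up; controls were probe without protein and protein plus probe with vehicle; some compounds called inactive have numbers as strong as hits; many hits fall short of the cut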
Env fusion inh: inhibitors of HIV Env-mediated cell fusion; HeLa-JRFL Env/CEM21 cell fusion, luciferase; inhibition, % at 12.3 µM; 1.1% of 360,000 active; AID 651610;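 active = mean replicate inhibition score of at least 50 and every replicate individually at or above 50; inconclusive = only one of the two criteria met; inactive = mean below 50 and not all replicates reaching 50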;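 note: 0% = plate neutral controls and 100% = maraviroc near 300 nM; one replicate is shown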
Rce1 inh: yeast Ras-converting enzyme inhibition | yeast membranes, quenched prenylated peptide cleavage fluorescence | calls only | 0.27% of 290,000 active | AID 2563;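 active = fall in fluorescence gain of 50% or more versus controls, with final raw signal at or below 3038400; inconclusive = same 50% fall but final raw signal above 3038400; inactive = fall in fluorescence gain under 50%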;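 note: plate controls were neutral control wells for no effect and wells lacking membranes for full effect; tested at 10 µM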
Target sequence (Q03530 whole entry, looked up): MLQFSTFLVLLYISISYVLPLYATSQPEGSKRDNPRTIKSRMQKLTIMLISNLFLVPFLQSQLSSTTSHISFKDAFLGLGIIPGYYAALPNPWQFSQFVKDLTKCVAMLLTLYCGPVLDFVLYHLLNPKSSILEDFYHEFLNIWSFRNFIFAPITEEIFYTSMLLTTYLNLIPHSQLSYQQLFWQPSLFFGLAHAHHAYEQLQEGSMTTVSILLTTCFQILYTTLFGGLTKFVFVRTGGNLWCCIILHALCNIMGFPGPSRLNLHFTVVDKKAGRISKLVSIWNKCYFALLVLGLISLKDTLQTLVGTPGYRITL
CSC inhib: cancer stem cell inhibition; cancer stem cell-like cells viability, luminescence; inhibition, % at 7.5 µM; 1.1% of 300,000 active; AID 2717;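 active = mean at 75% or more and at least half the replicates too; inconclusive = mean and replicates disagree; tested in HMLE shEcad cells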;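 note: 0% = median of negative and 100% = median of positive control wells; the first replicate is given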
eIF4H inh: inhibitors of RNA binding by human eIF4H; AID 2012; eIF4H fluorescence polarization binding assay; 0.94% of 290,000 active; inhibition, % at 35 µM;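 active = 50% or more with normal probe brightness, or confirmed in later tests; inconclusive = above 50% with abnormal brightness, or retests that disagree; inactive = below 50% or failed in later tests; about a fifth of its hits are not listed in these tables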;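 note: calls also rest on retests at 20 µM and on dose response follow-up; 0% = protein and probe with vehicle and 100% = probe without protein; strong numbers were not always called active; many hits fall short of the cut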
MT1-MMP act inh: blocks activation of human MT1-MMP; P50281; HT1080 RFP-PRO-GFP cells, GFP/RFP ratio fluorescence, overnight; percent of plate control window, DMSO zero; GFP/RFP ratio change, % at 20 µM; 0.061% of 360,000 active; AID 651647;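 active = GFP/RFP ratio change of at least 30% with cell ATP level not reduced by more than half and red fluorescence within 50% of control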; note: strong numbers were not always called active
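Material: RFP-PRO-GFP reporter HT1080 cells. Dosing: single-point 20 µM compound, 1% DMSO. Controls: DMSO and RFP-L50D-GFP cell wells. Timing: cells overnight before dosing, compound overnight, 37 °C, 5% CO2. Measure: GFP/RFP fluorescence ratio.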
Yeast UUG start: modulators of start codon recognition fidelity in yeast; S. cerevisiae UUG-firefly luciferase reporter, luminescence/redox ratio; activity score, % at 18.7 µM; 0.13% of 350,000 active; AID 602363;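 active = replicate mean at a twofold rise or more, about +100% in these data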;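 note: firefly luciferase made from a UUG start codon reports start codon fidelity; reporter light over untreated wells divided by growth signal over untreated wells; some hits fall short of that in this replicate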
eIF4H inh retest: second read-out of eIF4H inh, no call of its own (marks repeat the call); inhibition, %; compound at 20 µM; confirmation average;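 mean of two retest wells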
PABP FP inh retest: second read-out of PABP FP inh, no call of its own (marks repeat the call); inhibition, %; compound at 20 µM; confirmation repeats;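 mean of two retest wells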
MT1-MMP act inh RFP: second read-out of MT1-MMP act inh, no call of its own (marks repeat the call); RFP signal change, %; measured here: RFP expression control read;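 0 = vehicle wells; hits needed this value within 50% of zero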
* marks the source's active call; other numbers are inactive results; i = inactive; ? = inconclusive; . = no result given; & = joins results of further samples.

The first 3 records (preview)
SMILES | PABP FP inh | Env fusion inh | Rce1 inh | CSC inhib | eIF4H inh | MT1-MMP act inh | MT1-MMP act inh RFP | Yeast UUG start | others
COc1ccc(CNC(=O)COc2ccc(S(=O)(=O)N3CCOCC3)cc2C)cc1 | 1 | 9 | i | -1 | -9 | -2 | -6 | 5
S=C(Nc1ccc2c(c1)OCO2)Nc1ccccc1Cl | 21 | -4 | . | -14 | 44 | 2 | 6 | -25
CCCc1nc2c3ccccc3ccn2c1Cc1cccc(F)c1 | . | -29 | . | . | . | 3 | -6 | 40

Main list, from the first entry:
SMILES | PABP FP inh | Env fusion inh | Rce1 inh | CSC inhib | eIF4H inh | MT1-MMP act inh | MT1-MMP act inh RFP | Yeast UUG start | others
COc1ccc(CNC(=O)COc2ccc(S(=O)(=O)N3CCOCC3)cc2C)cc1 | 1 | 9 | i | -1 | -9 | -2 | -6 | 5
S=C(Nc1ccc2c(c1)OCO2)Nc1ccccc1Cl | 21 | -4 | . | -14 | 44 | 2 | 6 | -25
CCCc1nc2c3ccccc3ccn2c1Cc1cccc(F)c1 | . | -29 | . | . | . | 3 | -6 | 40
COc1cccc(-n2c(=O)c3sccc3n(CC(=O)NC3CCCC3)c2=O)c1 | 14 | -9 | i | 6 | 8 | 2 | 4 | -13
O=C1C(Cl)=C(Nc2ccccc2O)C(=O)N1CCc1ccccc1 | -2 | 14 | i | 2 | 2 | -31 | 3 | -10
Cc1cc(=O)cc(C)n1-c1ccccc1N | 7 | -25 | i | -14 | 3 | 2 | 4 | -30
CN(C)CCOC(=O)C12CC3CC(CC(C3)C1)C2 | 4 | . | i | -7 | 11 | 4 | 5 | .
O=C(CSc1nnc(NC2CCCCC2)s1)NC1CCS(=O)(=O)C1 (stereo not given) | 0 | -26 | i | 3 | 2 | -2 | -1 | -2
CC(=O)N1Cc2ccccc2C(C)CC12CCCC2 (stereo not given) | 0 | -13 | i | 7 | 1 | -2 | -5 | .
Cc1cccc(Oc2ccc(NS(=O)(=O)c3ccc(C)c(C(=O)O)c3)cc2)c1 | . | -4 | . | . | . | -2 | 0 | -21
CC1Cc2nc(SCC(=O)Nc3nccs3)n(Cc3ccccc3)c(=O)c2S1 (stereo not given) | 10 | 13 | i | -3 | 1 | -3 | 0 | -10
COC1(OC)C(/C=C/c2ccc(C)cc2)C(C#N)(C#N)C1(OC)OC (stereo not given) | . | 13 | i | 53 | . | -10 | -7 | 549*
O=C1/C(=C\c2cccs2)N=C(c2cccs2)N1Nc1ccccc1 | 15 | . | i | . | 15 | 6 | 4 | -9
CC(C)C(=O)Nc1nnc(SCC(=O)NCc2ccc3c(c2)OCO3)s1 | 17 | -10 | i | -11 | -7 | -3 | 1 | -5
CCCCC[C@H]1CN(Cc2ccccc2)C(=O)[C@@H]1CC(=O)NCc1ccccc1 | 9 | 10 | i | 3 | -1 | 1 | -7 | 7
CCCCN(C)c1c(N2CCC(C(=O)OCC)CC2)c(=O)c1=O | 8 | 5 | i | -9 | -3 | 8 | 4 | 2
Cc1onc(-c2c(F)cccc2Cl)c1C(=O)OCC(=O)Nc1cccc(S(=O)(=O)N(C)C)c1 | . | 3 | . | . | . | 1 | -15 | 5
CCn1c(SCC(=O)Nc2nccc(C)n2)nc2ccccc21 | 38 | 18 | i | . | 13 | 1 | 3 | -17
Cc1nc(Nc2ccccc2)sc1-c1ccccc1 | 16 | . | i | 11 | 4 | -2 | 0 | -38
COc1cc(/C=N/NC(=S)NCc2ccccc2)ccc1OCC#N | 1 | 14 | i | 3 | -2 | 1 | 2 | .
CC(=O)c1ccc(NC(=O)c2ccc(C)c(S(=O)(=O)N3CCOCC3)c2)cc1 | 5 | 0 | i | 1 | -13 | 3 | -2 | -1
Cc1cccc(NS(=O)(=O)c2ccc(C)c(C(=O)NNC(=O)c3csc(N4CCOCC4)n3)c2)c1 | . | 1 | . | . | . | 2 | -3 | -38
O=C(NCC1CCCO1)c1ccccn1 (stereo not given) | 18 | . | i | -12 | 2 | 10 | 8 | -9
COc1ccc(OCc2cc(C(=O)N(Cc3nccn3C)C(C)C)no2)c2ccccc12 | 2 | -32 | i | -5 | 0 | -4 | -2 | -1
COc1ccccc1N(C)S(=O)(=O)c1ccc(C(=O)Nc2nc(C)c(C(C)=O)s2)cc1 | . | 7 | . | . | . | -1 | -12 | -13

The list goes on:
SMILES | PABP FP inh | Env fusion inh | Rce1 inh | CSC inhib | eIF4H inh | MT1-MMP act inh | MT1-MMP act inh RFP | Yeast UUG start | others
Cc1cc(NC(=O)C(C)Oc2ccc(Cl)cc2Cl)no1 (stereo not given) | -1 | -5 | . | -12 | -17 | -3 | -2 | -20
O=C(COC(=O)C12CC3CC(CC(Br)(C3)C1)C2)Nc1cccnc1Cl | 0 | 15 | i | 31 | 6 | -2 | -5 | -10
Cc1ccccc1Nc1nnc(SCC(=O)NCc2cccs2)s1 | -6 | 3 | i | -4 | -12 | 3 | 6 | .
CC(=O)C1(O)CCC2C3CCC4CC(O)CCC4(C)C3C(=O)CC21C (stereo not given) | . | 22 | . | . | . | -1 | 4 | 4
COc1ccc(N(CC(=O)NCc2ccco2)C(=O)CCC(=O)Nc2ccccn2)cc1 | 11 | 5 | i | . | 8 | -2 | 1 | -2
O=C(CN1C2CCCC1CC(NC(=O)C1CCCCC1)C2)Nc1ccccc1 (stereo not given) | -13 | 9 | i | 0 | 15 | 0 | 1 | .
COc1cc(/C=N/NC(=O)c2cc(C34CC5CC(CC(C5)C3)C4)[nH]n2)ccc1O | -2 | . | i | 101* | -8 | 7 | 4 | .
O=C(C1CCCO1)N1CCN(C(=S)Nc2cccc(Cl)c2)CC1 (stereo not given) | 76 | -18 | i | 2 | -2 | 0 | 3 | -14 | eIF4H inh retest=20;PABP FP inh retest=27
Cc1cccc(-n2c(C)nc3cc(C(=O)NCCN4CCOCC4)ccc32)c1 | . | 14 | . | . | . | 3 | 3 | -9
CN(C)S(=O)(=O)c1cccc(NC(=O)CCc2nc3cc(S(=O)(=O)N4CCOCC4)ccc3n2C)c1 | . | 1 | i | -7 | . | 1 | -4 | -11
COc1cc(NC(=O)Cc2ccccc2)ccc1NC(=O)Cc1ccccc1 | 30 | -23 | i | -11 | -6 | 6 | 0 | -5
COc1ccc(C(=O)CSc2nnn(-c3cccc(NC(C)=O)c3)n2)cc1 | 4 | -21 | i | -7 | -7 | -1 | -4 | -14
COc1ccc(OC)c(S(=O)(=O)NCC(=O)O)c1 | -8 | -6 | i | -16 | -7 | -1 | 4 | 1
COC(=O)COc1ccc(S(=O)(=O)NCc2ccc3c(c2)OCO3)cc1 | 8 | -3 | i | 3 | -3 | 1 | 4 | -8
O=C1COc2ccc(C(=O)COC(=O)CNC(=O)c3ccccc3)cc2N1 | -8 | -14 | i | 8 | 32 | 1 | 5 | .
Cc1cc(=O)n2c(C)n[nH]c2n1 | -2 | . | i | -3 | -10 | 4 | 4 | -15
Cc1sc(NC(=O)C2CCCCC2C(=O)O)c(C(N)=O)c1C (stereo not given) | -7 | -77 | i | . | -6 | -3 | 2 | 12
COC(=O)c1c(NC(=O)Cc2cccs2)sc(C(=O)N2CCCCC2)c1C | -7 | . | i | -12 | -9 | 3 | -2 | 4
Cc1nnc2n1NC(c1ccc(Cl)cc1)C(C(=O)N(C)C1CCCCC1)S2 (stereo not given) | 3 | . | i | -1 | -12 | 0 | -1 | -41
CCOCCCn1c(=NC(C)=O)c(C(=O)OCC)cc2c(=O)n3ccccc3nc21 | 10 | . | ? | 1 | 9 | 0&-6 | 0&-2 | 1
CCNc1c(NS(=O)(=O)c2ccc(OC)c(Cl)c2)c(=O)oc2ccccc12 | 31 | -16 | i | -10 | -10 | 0 | -2 | 2
COc1ccc(CN2C(=O)C(CC(C)C)Nc3ncnc(N4CCN(c5ccccn5)CC4)c32)cc1 (stereo not given) | . | 3 | i | -11 | . | -2 | -2 | -13
CCCCn1c(N)c(N(CC)C(=O)c2cc(S(=O)(=O)N3CCCCCC3)ccc2OC)c(=O)[nH]c1=O | . | -4 | i | -1 | . | 0 | 1 | .
Cc1ccc(NC(=O)c2ccco2)c(NC(=O)Cc2cccs2)c1 | -10 | -7 | i | -16 | -3 | 0 | -1 | .
Brc1ccc(-c2csc(-c3c[nH]c4ccccc34)n2)cc1 | -7 | . | i | -7 | -3 | 0 | 0 | -15

Four successive entries out of the list so far, for reference:
SMILES | PABP FP inh | Env fusion inh | Rce1 inh | CSC inhib | eIF4H inh | MT1-MMP act inh | MT1-MMP act inh RFP | Yeast UUG start | others
COc1ccc(CNC(=O)COc2ccc(S(=O)(=O)N3CCOCC3)cc2C)cc1 | 1 | 9 | i | -1 | -9 | -2 | -6 | 5
S=C(Nc1ccc2c(c1)OCO2)Nc1ccccc1Cl | 21 | -4 | . | -14 | 44 | 2 | 6 | -25
CCCc1nc2c3ccccc3ccn2c1Cc1cccc(F)c1 | . | -29 | . | . | . | 3 | -6 | 40
COc1cccc(-n2c(=O)c3sccc3n(CC(=O)NC3CCCC3)c2=O)c1 | 14 | -9 | i | 6 | 8 | 2 | 4 | -13

New compounds follow
SMILES | PABP FP inh | Env fusion inh | Rce1 inh | CSC inhib | eIF4H inh | MT1-MMP act inh | MT1-MMP act inh RFP | Yeast UUG start | others
O=C(COC(=O)CN1C(=O)C2CCCCC2C1=O)Nc1cc(S(=O)(=O)N2CCOCC2)ccc1Cl (stereo not given) | 3 | -10 | i | 5 | -11 | -2 | 7 | .
CCN(CC)S(=O)(=O)c1ccc(N(C)Cc2ccc(C(F)(F)F)cc2)nc1 | -4 | . | i | 1 | -12 | -8 | -27 | .
Cc1ccc(N(C(=O)c2cnccn2)C(C(=O)NC2CCCCC2)c2ccc(O)cc2)cc1 (stereo not given) | 7 | 32 | i | -4 | 6 | 0 | 4 | .
O=C(O)C1C=CCC(C(=O)O)C1 (stereo not given) | . | -1 | . | . | . | -1 | 3 | -1
O=C(CCOc1ccccc1)Nc1ccc(Br)cc1 | 2 | -58 | i | -9 | -8 | 6 | -2 | -18
COc1ccccc1/C=N/N1C(=O)C2C3C=CC(CC3)C2C1=O (stereo not given) | 4 | -5 | i | 25 | -4 | 0 | -1 | .
Cc1cccc(NC(=O)c2nc[nH]c2C(=O)N[C@H](C)CO)c1 | . | 12 | . | . | . | 4 | 0 | 1
O=C(O)/C(=C\c1cccs1)Sc1nnc(-c2ccc(F)cc2)o1 | 77 | 10 | i | -7 | 3 | -1 | 1 | . | eIF4H inh retest=27;PABP FP inh retest=34
CC(C)c1ccc(NC(=S)Nc2ccc(OC(F)(F)F)cc2)cc1 | 0 | -11 | i | . | 3 | -2 | -3 | .
Cc1nnc(NC(=O)Cn2nc(C)c3ccccc3c2=O)s1 | -7 | 2 | i | 10 | -5 | 1 | 3 | -1
CC(=O)Nc1cccc(-c2csc(NCc3ccco3)n2)c1 | 22 | -58 | i | 9 | -9 | 1 | 3 | -31
Cc1cccc(N2CCN(C(=O)c3ccc(Cl)c(S(=O)(=O)NCc4ccco4)c3)CC2)c1C | -4 | 33 | i | 51 | -13 | -6 | -14 | -17
Cc1nc2ccccc2c(=O)n1NC(=O)CCC(=O)O | -3 | 6 | i | . | -5 | -4 | -3 | -19
CN(C(=O)CN1CCN(c2cc(-c3ccc(OCc4ccccc4)cc3)ncn2)CC1)c1ccccc1 | . | 12 | . | . | . | -5 | -29 | -17
CN(C)C=NC(=O)c1ccc([N+](=O)[O-])c(CS(=O)(=O)c2ccc(Cl)cc2)c1 | -5 | . | i | -4 | -6 | 5 | -1 | 4

Not all compounds are listed; the hit share may differ from the screen's.
